B2AR ag: agonists of human beta-2 adrenergic receptor inducing internalization | Am2.2-beta2AR cells, FAP receptor internalization, flow cytometry; reference of the scale not given here | response, % (concentration not given with the values) | 340,000 tested, 0.43% active | AID 504454;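 active = response above a set limit, near 3 SD of response in nonfluorescent compounds, cut at about 42% in these data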;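 also: stock transfer was 100 nL into about 11 µL; a reference agonist was the positive control; negative values mostly stem from fluorescent compounds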
Target sequence (P07550 whole entry, looked up): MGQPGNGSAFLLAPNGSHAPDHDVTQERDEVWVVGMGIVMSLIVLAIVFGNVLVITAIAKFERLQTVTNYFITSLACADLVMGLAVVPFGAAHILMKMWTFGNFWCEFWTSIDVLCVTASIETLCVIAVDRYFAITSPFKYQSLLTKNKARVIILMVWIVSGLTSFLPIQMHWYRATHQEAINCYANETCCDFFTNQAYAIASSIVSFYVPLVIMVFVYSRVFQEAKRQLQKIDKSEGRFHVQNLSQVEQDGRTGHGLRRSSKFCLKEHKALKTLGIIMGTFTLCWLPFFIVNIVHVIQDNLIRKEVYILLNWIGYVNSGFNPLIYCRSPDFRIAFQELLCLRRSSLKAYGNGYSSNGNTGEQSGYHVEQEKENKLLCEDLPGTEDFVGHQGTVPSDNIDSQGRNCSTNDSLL
Bfl-1 A1 inh: inhibitors of the anti-apoptotic protein A1, read as caspase activation. MEF A1-2A-BIM cells, Caspase-Glo 3/7 luminescence, 3 h; percent of clofoctol response, vehicle zero. caspase activation, % (concentration not given with the values). 330,000 tested, 0.066% active. AID 2462;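 active = over half of replicate activation scores above 10%, or exactly half above 10 with the replicate mean above 10; inconclusive = replicate mean below 10 yet half the replicates above 10; inactive = over half of replicates below 10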;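 also: wells of about 30 µL received 50 nL stock; many hits fall short of the cut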
ALR inh: human ALR oxidase inhibition via reduced H2O2. purified ALR, DTT oxidation, H2O2 HRP-luminol luminescence. inhibition, % (test concentration not listed). 290,000 tested, 3.8% active;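 active = mean and each replicate at 75% or more; inconclusive = only one of the two met; inactive = neither met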;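 also: stock transfer was 7.5 nL into about 7.5 µL; 0% = neutral wells and 100% = wells with inactivated enzyme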
Target sequence (P55789 whole entry, looked up): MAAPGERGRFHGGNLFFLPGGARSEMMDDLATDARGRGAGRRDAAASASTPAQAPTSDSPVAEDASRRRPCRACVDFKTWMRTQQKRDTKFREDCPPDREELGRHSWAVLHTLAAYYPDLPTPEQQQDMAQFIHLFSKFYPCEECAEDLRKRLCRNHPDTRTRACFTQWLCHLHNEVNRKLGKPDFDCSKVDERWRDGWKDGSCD
LANA-H2B inh: blocks KSHV LANA binding to histone H2A/H2B; cell-free LANA-H2A/H2B peptide, fluorescence polarization; inhibition, % (no concentration beside the values); 320,000 tested, 0.6% active; in the data active = inhibition mostly above about 10%, no sharp cut-off; inactive = mostly below about 6.7%;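 also: stock transfer was 7.5 nL into about 10 µL; 0% = median of vehicle wells and 100% = median of positive control wells; one replicate is shown; the record names a cut of 25% in any replicate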
rRNA inh HTS: inhibits bacterial ribosomal RNA function over humanized ribosomes; E. coli WT GFP vs humanized-ribosome RFP mutants, fluorescence, 24 h; hits give low values; DMSO median 0, no signal -100; GFP signal change (wild-type ribosome), % (concentration not given with the values); 350,000 tested, 1.6% active; AID 720706;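 active = significant combined selectivity score with lowered wild-type GFP, culture density cut under 30%, mutant RFP and density less affected; inactive = any of these conditions unmet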; also: one replicate is shown; some compounds called inactive have numbers as strong as hits
Beta apoptosis: blocks beta cell apoptosis; 300,000 tested, 0.8% active; INS-1E cytokine-induced death, ATP luminescence, 48 h; percent of positive-control rescue, neutral wells zero; protection from apoptosis, % (concentration not given with the values);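 active = all replicates at 75% or more, or half of them and the mean; inconclusive = half reach 75% but not the mean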;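 also: 0% = cytokine-treated negative control wells and 100% = positive control rescue; higher means more ATP so stronger rescue from cytokine killing; wells of about 40 µL received 100 nL stock; the first replicate is given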
Calb FLC: C. albicans growth modulation with fluconazole | C. albicans CaCi-2 (fluconazole-resistant clinical isolate) + fluconazole, Alamar Blue growth, 48 h | growth inhibition, % (test concentration not listed) | 300,000 tested, 0.57% active | AID 1979;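 active = most replicates above 75%; inconclusive = exactly half above 75%; inactive = most below 75%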;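 also: all wells also contain fluconazole at 8 µg/ml as a sub-toxic cotreatment; 0% = median of DMSO wells and 100% = median of geldanamycin control wells; wells of about 8 µL received 7.5 nL stock; the first replicate is given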
T cruzi inh: T. cruzi replication inhibition; AID 1885; inhibition, % (no concentration beside the values); T. cruzi beta-gal in NIH3T3, luminescence, 90 h; 300,000 tested, 1.4% active;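 active = mean inhibition across valid replicates above about 55%, limit read from the data; inconclusive = mean below that limit but half or more replicates reach it; inactive = mean below it, under half of replicates reach it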;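 also: signal also drops with host cell toxicity which is not excluded here; 0% = plate median of DMSO wells and 100% = zero luminescence signal; higher percent means less beta-gal luminescence so fewer parasites; stock transfer was 50 nL into about 50 µL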
rRNA inh HTS OD600: further read-out of rRNA inh HTS, marked with its call; OD600 change, %; measured here: OD600 growth;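 optical density of the mix in the first replicate; 0 = DMSO median and -100 = no signal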
rRNA inh HTS RFP: further read-out of rRNA inh HTS, marked with its call; RFP signal change, %; measured here: RFP humanized mutant strains;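 first replicate; 0 = DMSO median and -100 = no signal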
Numbers without * were called inactive; ? = inconclusive; · = not tested or not shown; & = joins results of further samples.

SMILES | B2AR ag | Bfl-1 A1 inh | ALR inh | LANA-H2B inh | rRNA inh HTS | rRNA inh HTS OD600 | rRNA inh HTS RFP | Beta apoptosis | Calb FLC | T cruzi inh
O=c1n(-c2ccccc2)c(=O)n2n1CCC2 | 4 | -1.0 | -1 | 0.7 | · | · | · | -5 | 0 | 0
CC(=O)N1N=C(c2cccc(Br)c2)OC12CCCC2 | -1 | 0.1 | -11 | -1.9 | 8 | 0 | 1.3 | 5 | -6 | -21
CC(=O)Nc1sc2c(c1C(=O)N1CCOCC1)CCCCC2 | -2 | -0.4 | 0 | -6.3 | · | · | · | 0 | -10 | 0
Cn1nnc2cc(NC(=O)N3CCN(c4ccccn4)CC3)ccc21 | -4 | 0.0 | -9 | 2.1 | 4 | 7 | 3.8 | -7 | 2 | -13
COCCCNC(=O)c1ccc(N2CCCC2)c(NS(=O)(=O)c2ccc(C)cc2)c1 | 4 | -1.3 | -3 | 0.6 | · | · | · | 2 | 2 | -11
O=C(O)CCC(=O)c1ccc2c(c1)OCCO2 | 4 | -1.0 | 39 | -0.8 | 2 | 5 | -0.8 | · | -7 | -5
O=C(Nc1ccccn1)c1ccc(S(=O)(=O)N2CCCCCC2)cc1 | -4 | -6.6 | 3 | 1.6 | -6 | -5 | -0.3 | -8 | -4 | 7
O=C(CSc1ncnc2scc(-c3ccc(F)cc3)c12)c1ccc2c(c1)OCCO2 | 4 | 0.2 | -3 | 0.2 | · | · | · | · | -18 | 17
Cc1cccnc1NC(=O)c1ccc(S(=O)(=O)N2CCCCC2)cc1 | -13 | -0.1 | -2 | 1.2 | 1 | 7 | -0.8 | 5 | -8 | -16
Cc1cc2c(c(CO)c1CCO)C(=O)[C@@H](C)[C@@H]2O | -7 | 0.8 | -2 | -0.4 | 4 | 6 | -0.1 | -4 | · | ·
COc1ccccc1N1C(=O)c2ccccc2NC1c1ccc(O)cc1 (stereo unspecified) | -4 | 0.2 | -6 | 2.5 | 3 | 4 | 2.1 | 3 | -2 | -3
CN1CCN(C(=O)CSc2nc(-c3cccs3)ccc2C#N)CC1 | 1 | 1.0 | -30 | 1.5 | · | · | · | -8 | 0 | 8
Cc1ccc(S(=O)(=O)N2CCN(CC(O)CN3CCOCC3)CC2)cc1 (stereo unspecified) | -4 | 1.2 | -1 | -214 | 9 | 8 | -0.4 | 4 | · | ·
CC(NC(=O)Cc1ccsc1)c1ccc(S(N)(=O)=O)cc1 (stereo unspecified) | 2 | 0.6 | -8 | -4.5 | · | · | · | -3 | -5 | -10
CCOC(=O)C(C)C1(O)c2ccccc2-c2ncccc21 (stereo unspecified) | 2 | -0.2 | -12 | -0.1 | 19 | 17 | 0.8 | -1 | -3 | -4
O=C(N/N=C/c1cccs1)C(=O)Nc1cccc(Cl)c1 | -1 | -2.4 | -5 | -3.9 | · | · | · | 3 | -12 | 6
Cc1ccc(Br)c(NS(=O)(=O)c2cccc(C(=O)N3CCNC(=O)C3)c2)c1 | -1 | -0.5 | 0 | 2.3 | 2 | -5 | 1.3 | 0 | · | ·
CC(CC(F)(F)F)N1CCC(n2nccc2NC(=O)CCCc2ccccc2)CC1 (stereo unspecified) | -1 | 1.9 | -2 | -0.3 | -2 | 2 | 2.1 | -1 | 1 | 36
O=C(c1ccc2c(c1)OCO2)C1CCCN(C(=O)Nc2ccc(F)cc2F)C1 (stereo unspecified) | 0 | -1.9 | 2 | -2.2 | -4 | -4 | 4.6 | -3 | 10 | -6
CCOC(=O)C(NCCc1ccc(F)cc1)(NC(=O)CC)C(F)(F)F (stereo unspecified) | -3 | 0.9 | 1 | 0.0 | 10 | 8 | -1.2 | ? | -3 | 5
Cc1nc2ccc(C(=O)Nc3ccccc3Cl)cc2s1 | 1 | -1.5 | -2 | 1.5 | -1 | 0 | -1.1 | -6 | -3 | 8
COc1cccc(NC(=O)CN(C)CC(=O)Nc2cccc(C(F)(F)F)c2)c1 | 0 | -0.2 | -4 | 3.1 | -34 | -45 | -5.5 | -7 | 6 | -4
Cc1c(Cl)cccc1N(CC(=O)N1CCCCCC1)S(C)(=O)=O | 1 | 0.7 | 2 | -4.5 | -2 | -3 | -2.4 | -9 | -11 | -1
CC(Sc1nnnn1-c1ccc(O)cc1)C(=O)NNC(=O)c1ccc(F)cc1 (stereo unspecified) | -3 | 0.2 | · | -1.4 | -2 | 8 | -0.6 | -2 | · | ·
COc1cc2ccccc2cc1C(=O)Nc1ccc(C)cn1 | -11 | 0.8 | -3 | 1.8 | 2 | 14 | 1.4 | 6 | 1 | 5
COc1ccc(N(CC(=O)NCc2ccccc2OC)S(=O)(=O)c2ccccc2)cc1 | 7 | 0.9 | 1 | -1.8 | -10 | -19 | 6.0 | 1 | 4 | 20
CC1(C)CC(=O)C=C(NC2CCCCC2)C1 | -2 | 0.9 | 2 | 0.9 | -8 | -6 | -11 | -2 | -6 | -1
CCCc1[nH][nH]c(=O)c1C(c1ccc(Cl)cc1)C(C#N)C#N (stereo unspecified) | 1 | -0.6 | 66 | 3.8 | 0 | -17 | -3.1 | · | 6 | -16
O=C(Nc1ccccc1Br)c1cccc2ccccc12 | -10 | 0.3 | -8 | 0.9 | 5 | 9 | 2.4 | 2 | -12 | -19
O=c1[nH]cnc2c1nc(NCc1ccccc1)n2C1O[C@@H](CO)[C@H](O)[C@@H]1O (stereo partly specified) | 2 | -0.1 | -10 | -2.7 | 12 | 11 | -0.7 | -9 | 0 | 1
C#CCOC(=O)CCCC(=O)NCCCCCCCC | 5 | 0.7 | -17 | 0.3 | -14 | -18 | -3.6 | -4 | 109* | -16
Cc1ccc(N=Cc2c(O)n(-c3ccc4c(c3)OCO4)c(=O)c3ccccc23)cc1 | -9 | -0.2 | 4 | 4.0 | · | · | · | 59 | -5 | -7
CCOC(=O)CSc1nc2c(sc(=S)n2-c2ccc(CC)cc2)c(=O)[nH]1 | 5 | 0.7 | · | -1.3 | -48 | -56 | -24 | · | -3 | 33
O=C(CSc1nc2scc(-c3ccccc3)c2c(=O)[nH]1)N1CCOCC1 | 1 | -0.1 | 36 | 2.6 | -1 | -2 | 0.2 | · | -3 | -5
COc1ccc(S(=O)(=O)NCC2CCCN(C(=O)CNC(C)=O)C2)cc1 (stereo unspecified) | -2 | 0.6 | -1 | 3.1 | 16 | 12 | 0.1 | 9 | 3 | -3
CC(=O)Oc1c(C)c(C)c2c(c1C)CC[C@@](C)(CCC[C@H](C)CCC[C@H](C)CCCC(C)C)O2 | -67 | -0.2 | -14 | 0.8 | 9 | 20 | 1.4 | -8 | · | ·
C[C@H](CCC(=O)NCC(=O)O)[C@H]1CC[C@H]2[C@@H]3[C@H](O)C[C@@H]4C[C@H](O)CC[C@]4(C)[C@H]3C[C@H](O)[C@]12C | 7&-6&3 | 1.8&0.9&0.6 | -2&6&4 | -0.3&-8.3&1.8 | 19&5&13 | 23&3&14 | 1.3&-0.9&-0.4 | 3&-7&0 | 1 | -23&-8
CCOc1cccc2cc(C(=O)Nc3ccccc3-c3ccccc3)c(=O)oc12 | -4 | 0.2 | 1 | -3.2 | · | · | · | 7 | 6 | -3
CC(C)(C)OC(=O)NNC(=O)c1ccc(Cl)cc1 | · | 1.5 | -4 | -1.8 | · | · | · | -1 | -5 | 8
C=CCOc1c(Cl)cc(CNc2ccc(C)c(Cl)c2)cc1OC | · | 0.4 | · | 1.2 | · | · | · | 47 | 3 | 55*
CCOc1ccc(S(=O)(=O)N2CCN(C(=S)NCc3ccccc3)CC2)cc1 | -12 | -0.5 | -11 | -1.7 | 7 | 7 | -4.2 | -5 | -2 | -1
Cc1ccc(NC(=O)NNC(=O)COc2ccc(Cl)cc2)cc1 | 12 | -0.4 | -2 | -10 | 9 | 6 | 2.0 | 2 | 10 | -1
COc1ccc(OC)c(CN2CCN(C(=O)c3ccc(NS(=O)(=O)c4cccc([N+](=O)[O-])c4)cc3)CC2)c1 | 11 | -0.2 | 4 | 4.4 | -7 | 4 | -0.3 | 2 | 1 | 18
O=C(O)Cn1cc(C(=S)N2CCCCC2)c2ccccc21 | 1 | 0.3 | 91* | -3.6 | 27 | 21 | 1.5 | -7 | -28 | -6
CC(NC(=O)C1CCCC1)c1ccc2c(c1)OCCO2 (stereo unspecified) | -6 | 0.3 | 1 | -2.6 | · | · | · | 4 | -18 | -10
CCC(C)c1ccc(NC(=O)COC(=O)CCNC(=O)c2ccco2)cc1 (stereo unspecified) | -6 | -0.2 | -2 | 2.9 | -7 | -6 | -0.3 | -1 | · | ·
O=C1C(=O)N(CCOCCO)C(c2ccccn2)/C1=C(\O)c1ccccc1 (stereo unspecified) | 4 | -0.3 | -24 | 1.7 | · | · | · | -5 | 8 | -9
CCC(CC)C1C(C#N)=C(N)SC(N)=C1C#N | 9 | -0.2 | · | -3.9 | · | · | · | · | -2 | -15
O=C(CCc1ccc(S(=O)(=O)N2CCOCC2)cc1)NN=C1CCCCCCC1 | 2 | -0.6 | -3 | -3.4 | · | · | · | -2 | -4 | 7
CCN1CCCC1CNC(=O)c1cc2cc(F)ccc2[nH]1 (stereo unspecified) | 4 | 0.1 | -9 | 1.1 | 1 | 9 | 1.1 | -8 | -6 | 29
Next section:
SMILES | B2AR ag | Bfl-1 A1 inh | ALR inh | LANA-H2B inh | rRNA inh HTS | rRNA inh HTS OD600 | rRNA inh HTS RFP | Beta apoptosis | Calb FLC | T cruzi inh
CCOC(=O)c1c(NC(=O)Cn2c(=O)oc3ccccc32)oc(C)c1C(C)=O | 2 | 1.1 | 8 | -6.7 | · | · | · | -1 | 1 | -5
O=S(=O)(c1ccc(F)c2ccccc12)N1CCCCC1 | 3 | 0.3 | · | -0.4 | · | · | · | -7 | -1 | -4
Cn1nnc2cc(C(=O)NCc3ccc4c(c3)OCO4)ccc21 | 3 | -0.4 | 0 | -6.1 | · | · | · | 0 | 1 | -8
COc1ccc(S(=O)(=O)Nc2c(C)nc3nc(C)[nH]n3c2=O)cc1 | 6 | 0.4 | · | 4.2 | 7 | 5 | 0.2 | -7 | -6 | 1
CC(C)(CNC(=O)c1cc(=O)[nH]c2ccccc12)N1CCOCC1 | -4 | -0.1 | -1 | -1.0 | · | · | · | · | -8 | -18
Cc1ccc(CSCCNC(=O)CN(c2ccc(F)cc2)S(C)(=O)=O)cc1 | 0 | 0.3 | · | -5.4 | -1 | 1 | 2.3 | -9 | 8 | -5
COc1ccc(OCC(=O)OCCN(C)C)cc1 | 6 | -0.4 | -18 | 1.3 | · | · | · | -2 | 3 | -17
Cc1nc(NC(=O)c2ccccc2)sc1-c1csc(Nc2ccc(Cl)cc2Cl)n1 | · | -12 | 87* | -2.1 | · | · | · | 1 | 7 | -8
Cc1ccc2c(c1)N(CC(=O)NCCc1ccc(Cl)cc1)C(=O)c1cccnc1O2 | 4 | 0.7 | -6 | 7.5 | -4 | -4 | 4.9 | -8 | 8 | 28
CCc1ccc2c(c1)C1(NN=C(c3cccc4ccccc34)S1)C(=O)N2 (stereo unspecified) | -1 | -0.2 | 0 | 5.1 | · | · | · | 63 | -1 | 53
O=C(CNC(=O)c1ccc(Cl)cc1Cl)OCC(=O)c1ccc2c(c1)OCCO2 | 0 | 0.1 | 1 | -8.3 | -18 | -27 | -9.6 | 2 | -12 | -5

Assay outcomes (PubChem BioAssay)

This is a subset, so the mix of outcomes need not match the whole.
